# Screening data from PubChem BioAssay.
# Mtb bLac sens: beta-lactam sensitization of Mtb H37Rv. inhibition, % at 25 µM. M. tuberculosis H37Rv growth with meropenem, percent inhibition; hits of this screen are not shown here. AID 434955. 330,000 compounds, 0.27% hits;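 active means about 74% or more and at least 40 points above the plate without the antibiotic, then above 30% in a dose series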;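 further: growth measured after seven days incubation then overnight dye step; 0% = bacteria only wells and 100% = bacteria with antibiotic; twin plates without the antibiotic show which effects depend on it; some results filed as inactive read as strong as hits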
# RecA intein inh: blocks M. tuberculosis RecA intein splicing; P9WHJ3; cell-free RecA intein splicing, fluorescence; inhibition, %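 (about 9 µM by stock and volumes)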; 290,000 compounds, 0.75% hits; AID 2221; in the data active means inhibition above about 30%;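 further: 0% = vehicle wells and 100% = reference inhibitor control wells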
# Target sequence (P9WHJ3 whole entry, looked up): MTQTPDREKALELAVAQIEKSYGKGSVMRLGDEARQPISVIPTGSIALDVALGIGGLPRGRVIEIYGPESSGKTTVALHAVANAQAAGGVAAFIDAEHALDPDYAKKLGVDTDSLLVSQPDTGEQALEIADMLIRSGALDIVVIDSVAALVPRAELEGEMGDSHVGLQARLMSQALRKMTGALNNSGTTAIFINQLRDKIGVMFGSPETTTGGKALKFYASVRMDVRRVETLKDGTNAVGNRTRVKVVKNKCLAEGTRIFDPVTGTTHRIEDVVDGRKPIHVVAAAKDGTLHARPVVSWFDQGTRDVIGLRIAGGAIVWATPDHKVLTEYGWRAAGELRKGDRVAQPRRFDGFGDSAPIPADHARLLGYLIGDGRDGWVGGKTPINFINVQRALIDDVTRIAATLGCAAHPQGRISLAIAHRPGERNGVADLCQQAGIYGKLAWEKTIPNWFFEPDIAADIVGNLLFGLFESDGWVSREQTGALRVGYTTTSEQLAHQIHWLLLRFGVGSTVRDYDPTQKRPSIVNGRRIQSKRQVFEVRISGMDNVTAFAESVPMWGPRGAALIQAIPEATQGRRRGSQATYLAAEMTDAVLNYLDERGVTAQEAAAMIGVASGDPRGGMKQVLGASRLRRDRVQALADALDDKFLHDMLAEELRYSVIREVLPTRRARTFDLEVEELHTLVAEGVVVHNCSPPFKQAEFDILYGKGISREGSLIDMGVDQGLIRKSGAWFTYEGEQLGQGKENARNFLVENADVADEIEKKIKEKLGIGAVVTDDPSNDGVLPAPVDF
# YopH inh: YopH (Yersinia) phosphatase inhibition; AID 898; 140,000 compounds, 0.16% hits; inhibition, %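 (about 10 µM by stock and volumes)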; fluorescence Ex485/Em525;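 active means inhibition of 50% or more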;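 further: controls were vehicle for no effect and minimum signal wells for full effect; inactives centre near -20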
# Arbovirus inh: blocks arbovirus infection. 200,000 compounds, 0.37% hits. arbovirus infection cell-based antiviral screen. AID 1251. inhibition, % at 10 µM;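 active means inhibition from about 30%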;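 further: bluetongue infection of BSR cells; cell survival read as ATP light after 72 h; 0% = infected wells without compound and 100% = uninfected wells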
# Mtb H37Rv: M. tuberculosis H37Rv growth inhibitors, H37Rv strain (AID 1626) | one-dose inhibition, % at 10 µM; IC50 in µM for titrated hits | 220,000 compounds, 0.95% hits | M. tuberculosis H37Rv growth inhibition; higher % means a stronger effect;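 active means confirmed in a dose series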;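 further: bacteria incubated seven days before Alamar blue readout; 0% = bacteria only wells and 100% = bacteria with antibiotic wells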
# Arbovirus inh repeat: also measured in Arbovirus inh; calls as there; inhibition, %; measured here: 10K subset replicate screen; many hits read low in the repeat;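 first of two repeat runs on a subset; 0% = infected and 100% = uninfected wells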
# * hit, by the source's call; nt = no result given. The list is partial. The share of hits here may be higher or lower than overall.
SMILES,Mtb bLac sens,RecA intein inh,YopH inh,Arbovirus inh,Mtb H37Rv,others
Cc1ccc(NC(=O)COC(=O)c2ccccc2Cl)cc1S(=O)(=O)N(C)C,-2,3.3,nt,18,-2%,
COc1ccc(-c2ocnc2C(=O)Nc2ccc3c(c2)CCC3)cc1,-3,-2.6,nt,nt,nt,
CCCNC(=O)c1csc2c1CCCCC2,5,-1.2,-1,14,5%,
Cc1occc1C(=O)N/N=C/c1sc(N2CCOCC2)nc1-c1ccccc1,-2,-3.8,nt,-1,-5%,
CSCCC(NC(=O)C1CCC(C)CC1)C(=O)NCCN1CCOCC1 (stereo unspecified),-1,6.4,-9,3,-2%,
CCCOc1ccc(N2C(=O)CC(SC(=NC)Nc3ccc(F)cc3)C2=O)cc1 (stereo unspecified),-11,0.4,-5,-10,6%,
Cc1ccccc1OCC(=O)NNC(=O)Nc1ccccc1,-2,-0.3,nt,1,-4%,
COc1cc2c(C(=O)NC3CCCCCC3)cn(C)c(=O)c2cc1OC,1,3.2,-29,1,-5%,
CC1Cc2ccccc2N1Cc1nc2scc(-c3cccs3)c2c(=O)[nH]1 (stereo unspecified),-4,3.6,-3,13,-1%,Arbovirus inh repeat=1
O=C(CSc1ncn[nH]1)NCCCc1ccccc1,4,-11,-42,3,-1%,
Cc1cccc(-n2c(C)n[nH]c2=S)c1,0,11,-41,-2,-6%,
COc1ccc(C2=NO[C@@H]3C(=O)N(Cc4ccccc4)C(=O)[C@H]23)c(OC)c1,9,0.8,nt,nt,4%,
OC(CNCc1ccco1)Cn1c2ccc(Br)cc2c2cc(Br)ccc21 (stereo unspecified),100,0.0,-1,13,2.8µM*,
COc1ccc(N2CCN(C(c3cccs3)C(C)NS(C)(=O)=O)CC2)cc1 (stereo unspecified),0,-3.8,nt,-6,0%,
COc1ccc(CN2CCN(S(=O)(=O)c3ccccc3)CC2)cc1Br,-1,6.0,-10,1,-4%,
O=[N+]([O-])c1cc(C(F)(F)F)ccc1NCCc1c[nH]c2ccc(O)cc12,nt,8.0,-37,1,5%,
COC(=O)CN(c1nc(C)cc(OC)n1)S(=O)(=O)c1ccc(C)cc1,-4,1.0,-31,0,0%,
Cc1ccc(C(=O)c2c3ccc(C(F)(F)F)cc3[n+]([O-])n2CCCN)cc1,9,-0.7,nt,nt,nt,
Nc1cc(=O)[nH]c(SCc2nc3ccccc3n2Cc2ccccc2)n1,8,nt,-35,-3,-6%,Arbovirus inh repeat=1
CCN(CC(=O)Nc1c(F)cccc1F)C(=O)CCc1nc2ccccc2c(=O)[nH]1,-1,-1.2,nt,nt,nt,
Cc1nc2ncnn2c(C)c1CCC(=O)N1CCN(c2ccccn2)CC1,8,0.3,-25,2,-14%,
Cc1nn(CC#N)c(=O)n1-c1ccc(F)cc1,-2,-1.3,-23,6,-2%,
COC(=O)/C=C1/SC(=NC(=O)c2ccc(F)cc2)NC1=O,-4,2.0,nt,nt,-5%,
Cc1nc2ncnn2c(N2CCCC(C(=O)Nc3ccccc3Br)C2)c1C (stereo unspecified),4,0.0,nt,10,4%,
Clc1ccc2nc(CSc3nnc4ccccn34)cn2c1,-8,-2.1,-65,4,-3%,
Cc1ccc(N2CC(C(=O)NCCN3CCOCC3)CC2=O)cc1C (stereo unspecified),2,1.2,nt,nt,nt,
CC(C)(C)c1ccc(NS(=O)(=O)c2ccc(N)cc2)cc1,5,3.4,nt,nt,8%,
Cc1ccccc1C(C(=O)NC1CCCCC1)N(C(=O)c1ccccn1)c1cccnc1 (stereo unspecified),6,1.4,nt,4,-6%,
CCOc1ccccc1C(=O)Nc1nnc(SCC(=O)Nc2cc(C)on2)s1,-5,-0.3,nt,-7,4%,
Cc1ccc(C(=O)N=c2sccn2C)cc1S(=O)(=O)N1CCOCC1,-10,-0.8,nt,nt,nt,
O=C(NCc1ccccc1F)C1CCN(C(=O)NCc2ccccc2)CC1,-2,-0.6,2,3,-2%,
O=C(c1ccc(OC(F)(F)F)cc1)c1ncc[nH]1,-5,3.4,nt,nt,nt,
OCCC1CN(Cc2cccn2-c2nccs2)CCN1Cc1ccccc1 (stereo unspecified),3,-1.4,nt,nt,-1%,
COc1ccc(C(=O)NNC(=O)c2cc(C)[nH]n2)cc1,4,-2.2,nt,-2,-2%,
COc1cccc2[nH]c3c(N4CCc5ccccc5C4)ncnc3c12,-2,-1.3,nt,nt,3%,
COc1ccc(NS(=O)(=O)c2ccc(SC)cc2)c(OC)c1,nt,-0.2,-6,-7,-2%,
S=C(NCCc1ccccc1)Nc1ccc(Cl)cc1Cl,-12,11,-27,-35,5%,
O=C(NC(Cc1ccccc1)C(=O)O)/C(=C/c1ccc([N+](=O)[O-])cc1)NC(=O)c1ccccc1Br (stereo unspecified),-11,-0.6,nt,5,-2%,
COc1cc2nc(CSc3nc(-c4ccc(F)cc4)cs3)[nH]c(=O)c2cc1OC,6,-2.1,-23,1,0%,
COc1cc(OC)c(NC(=O)c2ccoc2C)cc1Cl,8,2.4,-29,-10,-3%,
CCOC(=O)N1CCN(C(=O)CSc2nnc(Cc3cccn3C)n2CCc2ccccc2)CC1,-5,-6.7,-22,4,2%,
COc1ccccc1CNC(=O)CSc1ccc(-c2cccc([N+](=O)[O-])c2)nn1,2,-1.6,nt,-3,2%,
O=C(Nc1cccc(C(F)(F)F)c1)OC1CN2CCC1CC2 (stereo unspecified),0,0.3,nt,nt,nt,
c1ccc(-c2nnc(SCc3nnc(-c4cccs4)o3)o2)cc1,0,-1.9,-1,-10,6.3µM*,
CCc1ccc(OCC(=O)Nc2ccc(-c3cc4ccccc4oc3=O)c(OC)c2)cc1,-2,0.0,-20,0,3%,
Cc1ccc(OCC(=O)Nc2cccc(S(=O)(=O)N3CCOCC3)c2)c([N+](=O)[O-])n1,1,nt,nt,-5,-9%,
CC(=O)Nc1ccc(S(=O)(=O)NCc2cn3c(C)csc3n2)cc1,0,-1.6,-7,-2,-3%,
Cc1cc(C)cc(NC(=O)C2CCCN(S(=O)(=O)c3ccc4[nH]c(=O)ccc4c3)C2)c1 (stereo unspecified),-2,0.3,nt,nt,nt,
CC(C)CN(C(=O)COC(=O)c1ccc(Br)o1)c1c(N)n(Cc2ccccc2)c(=O)[nH]c1=O,-2,-0.8,nt,nt,nt,
COc1ccc(N2CCN(C(=O)CNC(=O)c3nn(-c4ccc(OC)cc4)c(=O)c4ccccc34)CC2)cc1,9,0.0,nt,nt,nt,
COc1ccc(C(=O)NNC(=O)c2cccc(F)c2)cc1,1,-0.8,nt,13,-4%,
O=[N+]([O-])c1ccc(CN2CCN(c3nc4ccccc4s3)CC2)cc1,5,-1.4,nt,nt,nt,
Cc1ccc(S(=O)(=O)Nc2c(C)n(C)n(-c3ccccc3)c2=O)c(C)c1,-2,-2.3,nt,nt,nt,
COc1ccc(CNC(=O)C2CCN(S(=O)(=O)c3ccc(-c4nn[nH]n4)cc3)CC2)cc1,-8,-2.9,-34,2,-7%,
CCOC(=O)c1ccc(NC(=O)c2cc(C)nc3ccccc23)cc1,3,-3.7,nt,nt,nt,
Cc1snc(SCC(=O)c2ccc(F)cc2)c1C#N,-6,1.0,nt,0,-3%,
O=C(Nc1c(F)cccc1F)C1CCN(C(=O)c2cccs2)CC1,-2,5.6,nt,nt,nt,
Cn1cccc1/C=N/NC(=O)c1sc2cc(Cl)ccc2c1Cl,1,0.2,-25,-23,12%,
CCOc1ccc([N+](=O)[O-])cc1CNCCc1ccccc1,8,0.2,nt,-14,-8%,
O=C(NCC1CCCN(Cc2cccc(OCCO)c2)C1)c1ccc(F)cc1 (stereo unspecified),-4,-14,nt,-4,1%,

# The list goes on.
SMILES,Mtb bLac sens,RecA intein inh,YopH inh,Arbovirus inh,Mtb H37Rv,others
N#Cc1c(-c2ccc(F)cc2)ccnc1N1CCOCC1,1,-0.9,nt,-11,-1%,
CCOc1ccc2nc(NC(=O)CSc3nc4c(c(=O)n(C)c(=O)n4C)n3C(C)C)sc2c1,18,-1.0,-22,-29,nt,
Cc1ccc(SCC(=O)Nc2c(Br)cnn2C)cc1,-4,2.2,nt,nt,3%,
C#CCSc1cc(C(F)(F)F)nc(-c2ccccn2)n1,-2,-1.5,nt,7,5%,
O=C(CCC(=O)N1CCN(c2ccccc2F)CC1)N1CCN(c2ccc(F)cc2)CC1,-2,-2.8,nt,nt,nt,
CCOC(=O)c1c(-c2cccc([N+](=O)[O-])c2)csc1N,34,12,-23,-13,3%,
COc1cccc(-c2nc(C(=O)NCC3CCCO3)cc3c2[nH]c2ccccc23)c1 (stereo unspecified),0,14,nt,nt,nt,
CCCS(=O)(=O)NCCc1cc2c(C)ccc(C)c2[nH]c1=O,-2,-1.5,nt,19,-5%,
CC1CCN(S(=O)(=O)c2ccc(-c3nnc(SCc4cccnc4)o3)cc2)CC1,-8,nt,-18,-9,-2%,
NS(=O)(=O)c1cc(C2(O)NC(=O)c3ccccc32)ccc1Cl (stereo unspecified),-5,0.1,-44,10,-3%,
COc1ccccc1NC(=S)N(Cc1ccccc1)Cc1ccccn1,-2,-4.0,4,4,8%,
Cn1cc(Cl)c(C(=O)N/N=C/c2ccc(OS(=O)(=O)c3ccccc3)cc2)n1,-17,-0.3,-31,-15,-4%,

# Reprinted from the listing, 3 compounds:
SMILES,Mtb bLac sens,RecA intein inh,YopH inh,Arbovirus inh,Mtb H37Rv,others
CCCS(=O)(=O)NCCc1cc2c(C)ccc(C)c2[nH]c1=O,-2,-1.5,nt,19,-5%,
CC1CCN(S(=O)(=O)c2ccc(-c3nnc(SCc4cccnc4)o3)cc2)CC1,-8,nt,-18,-9,-2%,
NS(=O)(=O)c1cc(C2(O)NC(=O)c3ccccc32)ccc1Cl (stereo unspecified),-5,0.1,-44,10,-3%,

# The results go on:
SMILES,Mtb bLac sens,RecA intein inh,YopH inh,Arbovirus inh,Mtb H37Rv,others
CC(O)[C@@H](NC(=O)C1CCC(CNC(=O)[C@H](Cc2ccccc2)NC(=O)OC(C)(C)C)CC1)C(=O)O (stereo partly specified),2,-0.9,nt,nt,nt,
Cc1ccc(NC(=O)Cn2cc(C(F)(F)F)cc(Cl)c2=O)cc1S(=O)(=O)N1CCCCC1,-11,8.5,nt,nt,nt,
Cc1cccc(N(CC(=O)NCc2ccc3c(c2)OCO3)C(=O)CCC(=O)Nc2ccccn2)c1,6,1.2,-14,-2,4%,
O=C(CN1CCN(Cc2ccccc2)C1=O)NCCCN1CCOCC1,-7,-5.9,-6,2,-3%,
CCc1ccc(C(=O)COC(=O)CNC(=O)c2ccc(N3C(=O)c4ccccc4C3=O)cc2)cc1,22,-1.5,-45,4,-8%,
CCOc1cc(N2CCCC2)ccc1[N+](=O)[O-],-7,1.4,-27,-10,-14%,
COc1ccc(C2c3ccc(O)cc3Oc3ncn(CCN4CCOCC4)c(=N)c32)cc1 (stereo unspecified),-7,-0.3,nt,nt,-1%,
COc1ccc(C2NC(=O)NC(C)=C2C(=O)Nc2cccc(C)c2C)cc1 (stereo unspecified),-7,-0.7,-20,7,-5%,Arbovirus inh repeat=3
Cc1ccc(C(C)C)cc1C(=O)CC1(O)C(=O)N(C)c2ccccc21 (stereo unspecified),-4,7.4,-50,4,-7%,
CCCc1cc(C(=O)Nc2cc(C)ccc2O)no1,2,-2.0,nt,nt,nt,
O=C(O)c1cccc(-c2ccc(/C=N/n3cnnc3)o2)c1,2,-4.1,nt,nt,nt,
Cc1ccccc1-c1nnc(SCC(=O)NC2CCCC2)n1C,-2,-3.8,nt,nt,nt,

# Of the compounds above, these have two or more sulfur atoms:
SMILES,Mtb bLac sens,RecA intein inh,YopH inh,Arbovirus inh,Mtb H37Rv,others
CC1Cc2ccccc2N1Cc1nc2scc(-c3cccs3)c2c(=O)[nH]1 (stereo unspecified),-4,3.6,-3,13,-1%,Arbovirus inh repeat=1
COc1ccc(N2CCN(C(c3cccs3)C(C)NS(C)(=O)=O)CC2)cc1 (stereo unspecified),0,-3.8,nt,-6,0%,
CCOc1ccccc1C(=O)Nc1nnc(SCC(=O)Nc2cc(C)on2)s1,-5,-0.3,nt,-7,4%,
Cc1ccc(C(=O)N=c2sccn2C)cc1S(=O)(=O)N1CCOCC1,-10,-0.8,nt,nt,nt,
COc1ccc(NS(=O)(=O)c2ccc(SC)cc2)c(OC)c1,nt,-0.2,-6,-7,-2%,
COc1cc2nc(CSc3nc(-c4ccc(F)cc4)cs3)[nH]c(=O)c2cc1OC,6,-2.1,-23,1,0%,
c1ccc(-c2nnc(SCc3nnc(-c4cccs4)o3)o2)cc1,0,-1.9,-1,-10,6.3µM*,
CC(=O)Nc1ccc(S(=O)(=O)NCc2cn3c(C)csc3n2)cc1,0,-1.6,-7,-2,-3%,
Cc1snc(SCC(=O)c2ccc(F)cc2)c1C#N,-6,1.0,nt,0,-3%,
CCOc1ccc2nc(NC(=O)CSc3nc4c(c(=O)n(C)c(=O)n4C)n3C(C)C)sc2c1,18,-1.0,-22,-29,nt,
CC1CCN(S(=O)(=O)c2ccc(-c3nnc(SCc4cccnc4)o3)cc2)CC1,-8,nt,-18,-9,-2%,
